From PubChem BioAssay
FGF22 binding = FGF22 (human) thermal shift binding; calls only at 9.99 µM; recombinant FGF22 thermal shift, SYPRO orange fluorescence; percent of sucrose octasulfate shift, DMSO zero; 1.5% of 340,000 active;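 active = melting point raised past a set limit in the mean and every replicate; three in four hits are not shown here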
Target sequence (Q9HCT0 whole entry, looked up): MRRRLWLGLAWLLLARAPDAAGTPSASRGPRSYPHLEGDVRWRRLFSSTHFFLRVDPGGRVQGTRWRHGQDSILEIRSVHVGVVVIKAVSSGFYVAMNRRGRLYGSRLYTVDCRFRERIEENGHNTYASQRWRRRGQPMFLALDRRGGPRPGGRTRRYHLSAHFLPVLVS
rRNA inh HTS = selective bacterial rRNA inhibition in E. coli | E. coli WT GFP vs humanized-ribosome RFP mutants, fluorescence, 24 h; hits give low values; DMSO median 0, no signal -100 | GFP signal change (wild-type ribosome), % (no concentration beside the values) | 1.6% of 350,000 active;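 active = significant combined selectivity score with lowered wild-type GFP, culture density cut under 30%, mutant RFP and density less affected; inactive = any of these conditions unmet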; also: one replicate is shown; some compounds called inactive have numbers as strong as hits
AF4-AF9 inh = blocks AF4 peptide binding to human AF9 | 0.47% of 350,000 active | P42568 | AID 651704 | AlphaScreen, biotin-AF4 peptide binding to FLAG-AF9 | inhibition, % at 10 µM;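 active = every replicate reaching a set inhibition limit, whatever the replicate mean, cut at about 25% in these data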;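 also: 0% = plate neutral control median and 100% = total signal loss; the record names both 10 and 1 µM as test concentration; the first replicate is given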
Target sequence (P42568 whole entry, looked up): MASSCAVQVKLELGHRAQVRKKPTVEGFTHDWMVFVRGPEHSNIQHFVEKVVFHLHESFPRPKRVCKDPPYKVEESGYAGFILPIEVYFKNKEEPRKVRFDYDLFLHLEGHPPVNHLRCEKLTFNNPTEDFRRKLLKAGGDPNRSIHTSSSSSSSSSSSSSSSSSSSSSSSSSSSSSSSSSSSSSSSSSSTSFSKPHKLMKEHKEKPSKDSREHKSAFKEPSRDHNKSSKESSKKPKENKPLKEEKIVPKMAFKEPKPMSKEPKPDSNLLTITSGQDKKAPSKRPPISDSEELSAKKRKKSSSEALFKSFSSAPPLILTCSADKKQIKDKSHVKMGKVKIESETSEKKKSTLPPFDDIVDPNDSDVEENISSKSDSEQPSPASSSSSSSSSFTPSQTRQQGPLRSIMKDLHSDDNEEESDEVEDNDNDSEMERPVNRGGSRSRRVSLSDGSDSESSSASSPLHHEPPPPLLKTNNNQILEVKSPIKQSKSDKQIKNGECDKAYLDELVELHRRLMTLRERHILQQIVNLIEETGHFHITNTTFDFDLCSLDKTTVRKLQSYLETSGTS
rRNA inh HTS OD600 = second read-out of rRNA inh HTS, no call of its own (marks repeat the call); OD600 change, %; measured here: OD600 growth;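 optical density of the mix in the first replicate; 0 = DMSO median and -100 = no signal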
rRNA inh HTS RFP = second read-out of rRNA inh HTS, no call of its own (marks repeat the call); RFP signal change, %; measured here: RFP humanized mutant strains;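 first replicate; 0 = DMSO median and -100 = no signal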
Active calls of the source: *; i = inactive; & = joins results of further samples.

Sequence of screens – FGF22 binding	rRNA inh HTS	rRNA inh HTS OD600	rRNA inh HTS RFP	AF4-AF9 inh
CCCNC(=O)N(C)C[C@H]1Oc2cc(C#Cc3ccccn3)ccc2S(=O)(=O)N([C@@H](C)CO)C[C@H]1C
    i	-5	-3	0.6	-0.4
CC(C)c1ccc(CN2CCN(C(=O)CCl)CC2)cc1
    i	3	4	1.7	0.1
CCN(C[C@@H]1[C@@H](c2ccccc2)[C@@H](CO)N1C(=O)COC)S(C)(=O)=O
    i	2	-2	-0.4	-3.2
O=C(c1ccccc1)N1C[C@H]2[C@@H](c3ccccc31)[C@@H](CO)N2C(=O)c1ccccn1
    i	0	1	-1.2	-3.3
Cc1ccc(C(=O)N2CCC2(C)C(=O)NC(C)C)cc1 (configuration not stated)
    i	8	9	1.1	-0.4
CCC(=O)Nc1ccc2c(c1)C(=O)N(C)C[C@H](OC)[C@@H](C)CN(C(=O)C1CC1)[C@H](C)CO2
    i	2	2	-0.7	-2.0
COc1cccc(NC(=O)N(C)C[C@@H]2Oc3ncc(C#Cc4cccnc4)cc3C(=O)N([C@H](C)CO)C[C@@H]2C)c1
    i	-2	-2	-4.5	1.5
CCCNC(=O)Nc1ccc2c(c1)C(=O)N(C)C[C@H](OC)[C@H](C)CN(C(=O)c1ccccc1F)[C@@H](C)CO2
    i	0	1	-0.4	1.7
CCN1C(=O)[C@H]2[C@H]3CN=C(SCc4ccc(C#N)cc4)N3[C@@](C)(C(=O)OC)[C@H]2C1=O
    i	24	14	3.0	-0.4
O=C(c1cccc(F)c1)N1CC[C@H]2[C@H](CO)Nc3ccc(-c4ccc(F)cc4)cc3[C@H]21
    i	-59	-79	-14	-0.5
O=C(CSc1ccc2c(c1)OCCO2)N1CCN(c2ccccc2O)CC1
    i	-6	-10	-1.0	0.0
CC(C)CC#Cc1ccc2c(c1)O[C@@H](CN(C)C(=O)c1ccccc1)[C@H](C)CN([C@H](C)CO)S2(=O)=O
    i	-8	-33	3.4	6.3
C[C@@H]1CN([C@@H](C)CO)C(=O)c2cccc(NS(=O)(=O)c3cccs3)c2O[C@@H]1CN(C)CC1CC1
    i	0	6	-1.2	0.5
Cc1onc(-c2c(Cl)cccc2Cl)c1-c1nc2cc(Cl)ccc2c(=O)o1
    i	-34*	-13*	2.7*	-2.5
COc1ccc(S(=O)(=O)Nc2ccc3c(c2)C(=O)N([C@@H](C)CO)C[C@@H](C)[C@@H](CN(C)C(=O)NC(C)C)OCCCC[C@H](C)O3)cc1
    i	-2	-7	-2.1	-6.7
O=C(c1ccc(F)cc1)N1CC[C@@H]2[C@H](CO)Nc3ccc(-c4ccccc4F)cc3[C@@H]21
    i	1	-7	8.6	1.4
C[C@H]1CN([C@@H](C)CO)C(=O)c2cc(C#Cc3ccc(F)cc3)cnc2O[C@@H]1CN(C)Cc1ccccn1
    i	1	-13	21	4.9
C[C@@H]1CN([C@@H](C)CO)C(=O)Cc2cc(NC(=O)Cn3cnnn3)ccc2O[C@@H]1CN(C)Cc1ccc2c(c1)OCO2
    i	-2	1	-1.2	0.8
N#Cc1ccc(-c2ccc([C@H]3[C@H](CO)N4CCCCN(C(=O)Nc5ccc(F)cc5)C[C@@H]34)cc2)cc1
    i	-21	-57	7.0	-4.8
COC(=O)C(C(=O)OC)C(CC(=O)c1ccc(Br)cc1)c1ccccc1 (configuration not stated)
    i	-15	-27	-3.9	-2.3
Cc1ccc(-c2cnc3c(c2)C(=O)N([C@H](C)CO)C[C@H](C)[C@@H](CN(C)C(=O)c2cccc(F)c2)O3)cc1
    i	-7	-20	7.9	0.1
C[C@@H]1CN([C@H](C)CO)C(=O)c2cc(NC(=O)Cn3cnnn3)ccc2O[C@@H]1CN(C)C
    i	4	11	-2.6	-3.1
COc1ccc(NC(=O)N(C)C[C@@H]2Oc3ccc(NC(=O)Cn4cnnn4)cc3CC(=O)N([C@H](C)CO)C[C@@H]2C)cc1
    i	-1	-2	-2.4	1.3
CC=Cc1ccc2n(c1=O)C[C@@H]1[C@@H](CO)[C@H](C(=O)NCc3ccccn3)[C@H]2N1CCC (mixture of isomers)
    i	3	2	-2.4	0.3
COc1ccc(Cc2c(-c3ccc(Cl)cc3)nc3c(C)cc(Br)cn23)c(C)c1
    i	-6	-1	17	-0.9
COc1ccc(S(=O)(=O)Nc2cccc3c2O[C@H](CN(C)C(=O)Nc2c(C)noc2C)[C@H](C)CN([C@@H](C)CO)C3=O)cc1
    i	-1	-2	-4.1	-0.2
O=C1CCCN1CCCNc1nc(NCc2cccs2)nc2ccsc12
    i	1	-3	0.7	2.1
C[C@H](CO)N1C[C@H](C)[C@H](CN(C)S(=O)(=O)c2ccccc2)Oc2ncc(-c3cccc(F)c3)cc2C1=O
    i	-6	-8	4.6	-1.5
CCC(=O)N1C[C@@H]2[C@H](c3ccccc31)[C@@H](CO)N2Cc1cc(F)ccc1F
    i	-2	2	0.1	3.2
C[C@H]1CN([C@@H](C)CO)C(=O)c2cc(NS(=O)(=O)c3cn(C)cn3)ccc2O[C@H]1CN(C)Cc1ccc(C(=O)Nc2ccccc2N)cc1
    i	-2	1	-2.2	-0.1

Six consecutive records from above, quoted:
Sequence of screens – FGF22 binding	rRNA inh HTS	rRNA inh HTS OD600	rRNA inh HTS RFP	AF4-AF9 inh
CCCNC(=O)N(C)C[C@H]1Oc2cc(C#Cc3ccccn3)ccc2S(=O)(=O)N([C@@H](C)CO)C[C@H]1C
    i	-5	-3	0.6	-0.4
CC(C)c1ccc(CN2CCN(C(=O)CCl)CC2)cc1
    i	3	4	1.7	0.1
CCN(C[C@@H]1[C@@H](c2ccccc2)[C@@H](CO)N1C(=O)COC)S(C)(=O)=O
    i	2	-2	-0.4	-3.2
O=C(c1ccccc1)N1C[C@H]2[C@@H](c3ccccc31)[C@@H](CO)N2C(=O)c1ccccn1
    i	0	1	-1.2	-3.3
Cc1ccc(C(=O)N2CCC2(C)C(=O)NC(C)C)cc1 (configuration not stated)
    i	8	9	1.1	-0.4
CCC(=O)Nc1ccc2c(c1)C(=O)N(C)C[C@H](OC)[C@@H](C)CN(C(=O)C1CC1)[C@H](C)CO2
    i	2	2	-0.7	-2.0

Additional structures.
Sequence of screens – FGF22 binding	rRNA inh HTS	rRNA inh HTS OD600	rRNA inh HTS RFP	AF4-AF9 inh
Cc1ccccc1S(=O)(=O)N1C[C@@H](O)COC[C@H]2O[C@@H](CC(=O)O)CC[C@@H]21
    i	5	-3	-3.9	-13
CCCN(C)C[C@H]1Oc2cc(C#Cc3ccccc3OC)ccc2S(=O)(=O)N([C@H](C)CO)C[C@H]1C
    i	2	0	8.4	9.9
CCCC(=O)N1C[C@@H]2[C@H](c3ccccc31)[C@@H](CO)N2C(=O)Nc1ccccc1
    i	-2	2	1.8	-1.8
COC(=O)[C@]1(Cc2ccccc2)N[C@H](CN(C)C(=O)c2ccc(C(C)(C)C)cc2)[C@@H]2C(=O)N(Cc3ccccc3)C(=O)[C@@H]21
    i	24	10	4.4	0.6
Cc1ccccc1-c1ccc([C@H]2[C@H]3CN(C(=O)c4ccncc4)CC(=O)N3[C@H]2CO)cc1
    i	0	9	-1.1	-1.4
COc1ccc(-c2ccc([C@H]3[C@@H](CO)N4CCCCN(CC5CCOCC5)C[C@H]34)cc2)cc1
    i	-1	9	2.7	3.0
Cc1ccc(S(=O)(=O)N(C)C[C@@H]2Oc3c(NC(=O)C4CCOCC4)cccc3C(=O)N([C@H](C)CO)C[C@H]2C)cc1
    i	3	-4	-2.5	1.5
C/C=C/c1cccc(-c2nc(C(=O)NCc3ccccc3)cc3c2[C@H](CCO)N([S@@](=O)C(C)(C)C)C3)c1
    i	-6	-6	11	4.1
COC(=O)C1=C(C)N(C)C(=NCc2ccccc2)NC1c1ccccc1 (configuration not stated)
    i	19	2	3.4	1.6
CO[C@H](CN(C)S(=O)(=O)c1ccc(Cl)cc1)[C@@H](C)CN(C(=O)Nc1ccccc1F)[C@@H](C)CO
    i	-5	2	-4.6	-2.9
C[C@@H]1CN([C@@H](C)CO)C(=O)c2cccc(N(C)C)c2O[C@H]1CN(C)C(=O)Nc1ccc(F)cc1
    i	1	7	3.0	-4.6
C/C=C/c1ccc([C@@H]2[C@@H](C#N)N(C(=O)CN3CCOCC3)[C@H]2CO)cc1
    i	6	11	-4.1	0.7
C[C@H]1CN([C@@H](C)CO)S(=O)(=O)c2ccc(-c3cncnc3)cc2O[C@@H]1CN(C)C(=O)Cc1ccccc1
    i	2	3	-1.2	10
O=C(Nc1ccc2c(c1)[C@@H]1C[C@@H](CC(=O)N3CCc4ccccc4C3)O[C@H](CO)[C@@H]1O2)NC1CCCC1
    i	-1	2	-1.8	0.5
Cc1ccc(-c2ccc3c(c2)O[C@@H](CN(C)C)[C@@H](C)CN([C@H](C)CO)S3(=O)=O)cc1
    i	1	3	-0.9	-8.3
COc1ccc(-c2csc(Nc3cccc(C)n3)n2)cc1OC
    i	-4	-22	23	0.5
O=C(CC1CC1)N1CC2(C1)[C@H](c1ccccc1)[C@@H](CO)N2S(=O)(=O)Cc1ccccc1
    i	-2	0	2.8	-3.6
COCC(=O)N(C)C[C@@H]1Oc2ncc(C#Cc3ccc(OC)cc3)cc2C(=O)N([C@@H](C)CO)C[C@@H]1C
    i	8	11	-2.4	-1.5
COc1ccc(S(=O)(=O)N2C[C@@H](O)COC[C@H]3O[C@@H](CC(=O)NCc4ccc(Cl)c(Cl)c4)CC[C@@H]32)cc1
    i	-10	-21	-4.6	0.9
CN(C)CC(=O)Nc1ccc2c(c1)[C@H]1C[C@H](CC(=O)NCc3ccncc3)O[C@H](CO)[C@H]1O2
    i	3	-5	-1.6	-1.4
NCC[C@@H]1CC[C@@H](NC(=O)Cc2ccncc2)[C@@H](CO)O1
    i	2	-3	-0.2	-0.1
COc1ccc(C2CC(=O)Oc3c(C(C)C)ccc(C)c32)cc1 (configuration not stated)
    i	-8	-14	-8.3	-4.7
O=C(Nc1ccc(F)c(Cl)c1)c1cc(C2CCCCN2C(=O)c2cccs2)on1 (configuration not stated)
    i	-10	-10	-1.5	-4.2
C[C@@H]1CCCCO[C@@H](CN(C)Cc2ccc3c(c2)OCO3)[C@H](C)CN([C@H](C)CO)C(=O)c2cc(NC(=O)Nc3ccc(C(F)(F)F)cc3)ccc2O1
    i	6	-8	3.2	8.8
C/C=C/c1ccc([C@@H]2[C@@H](CO)N(C(=O)c3ccccc3)[C@@H]2CNC(C)C)cc1
    i	-3	-7	0.6	3.0
COc1cccc(CNc2nc3cc(-c4ccc(F)cc4)sc3c(=O)n2C)c1OC
    i	-2	8	8.2	0.1
CO[C@H]1CN(C)C(=O)c2cc(NC(=O)c3cc(C)on3)ccc2OC[C@@H](C)N(C(=O)C2CC2)C[C@H]1C
    i	1&2	3&0	-2.6&-1.3	2.9&-1.0
O=C(C[C@H]1C[C@H]2c3cc(NC(=O)NC4CCCCC4)ccc3O[C@H]2[C@@H](CO)O1)NCC(F)(F)F
    i	7	7	-0.7	-0.7
CNC[C@@H]1Oc2ccc(NC(=O)c3ccncc3)cc2C(=O)N([C@H](C)CO)C[C@H]1C
    i	0	9	-1.6	-3.0
COc1cccc(S(=O)(=O)N2CCCCN3[C@H](CO)[C@H](c4ccc(C#CCC(C)C)cc4)[C@@H]3C2)c1
    i	5	4	3.3	-4.0

Later entries:
Sequence of screens – FGF22 binding	rRNA inh HTS	rRNA inh HTS OD600	rRNA inh HTS RFP	AF4-AF9 inh
CC1=C(C(=O)Nc2ccc(C(=O)NCCCN3CCCCC3C)cc2)SCCO1 (configuration not stated)
    i	1	-3	6.3	-2.1
CC(C)(O)C#Cc1ccc([C@@H]2[C@@H](CO)N3CCCCN(C(=O)c4cccnc4)C[C@@H]23)cc1
    i	2	11	-0.1	-6.7
Cc1ccc(NC(=O)CSc2nnnn2C)cc1S(=O)(=O)N1CCCCC1
    i	-3	6	-2.8	-1.4
C[C@@H]1CN([C@@H](C)CO)C(=O)Cc2cc(NC(=O)C3CC3)ccc2O[C@@H]1CN(C)Cc1ccncc1
    i	-2	11	-1.8	-1.7
CCCC(=O)Nc1ccc2c(c1)C(=O)N(C)C[C@@H](OC)[C@@H](C)CN(CCc1ccccc1)[C@H](C)CO2
    i	2	7	-0.9	1.8
CCCC#Cc1ccc2c(c1)O[C@H](CN(C)CC1CC1)[C@H](C)CN([C@@H](C)CO)S2(=O)=O
    i	3	5	-2.0	5.2
CCC(=O)Nc1ccc2c(c1)C(=O)N(C)[C@@H]1CC[C@H](CC(=O)NCCCN(C)C)O[C@@H]1CO2
    i	2	1	-3.5	1.0
O=C(Nc1ccc(F)cc1)N1C[C@H]2[C@@H](c3ccccc31)[C@@H](CO)N2C(=O)Cc1ccccn1
    i	1	3	2.4	-16
CO[C@H]1CN(C)C(=O)c2cc(NC(=O)Nc3ccccc3)ccc2OC[C@@H](C)N(CC2CC2)C[C@@H]1C
    i	1	-1	-1.7	1.7

Only part of the results is shown, so the mix of outcomes need not match the whole.
